Screens deposited in PubChem BioAssay by National Center for Advancing Translational Sciences (NCATS).
MARV entry inh: inhibitors of Marburg virus binding or entry into cells. Marburg virus pseudotype entry/binding inhibition, cell-based; control for the full effect not named in the record; many of its hits are not listed in these tables. Potency, µM (series often up to 49.2 µM), for the others: at the highest dose activity change, negative = inhibition, actives largely listed as inhibitors. hit rate 6.5% among 18,000. AID 720532; active means well fitted inhibition curve with a large enough effect; inconclusive means small, poorly fitted or top-dose-only effect; inactive means no such curve, though single readings can be large or run the other way; tested in HEK293 cells; also: luciferase read-out
LASV entry inh: Lassa virus entry inhibition. Lassa virus pseudotyped entry inhibition, cell-based qHTS; control for the full effect not named in the record; many of its hits are not listed in these tables. Potency, µM (series often up to 49.2 µM), inactives show at the top dose activity change, negative = inhibition, most hits filed as inhibitors. hit rate 4.1% among 18,000. AID 720533; active = well fitted inhibition curve with a large enough effect; inconclusive = small, poorly fitted or top-dose-only effect; inactive = no such curve, though single readings can be large or run the other way; tested in HEK293 cells; also: luciferase read-out
An asterisk follows results filed as active; & = joins results of further samples; [ ] = dose if it differs, or a comment. % is scaled to controls: 0 for no effect and ±100 for the full control effect; potency is read from the fitted curve at half-maximal effect.

For C=CCN1c2ccccc2[C@]23C[C@@H](C(=O)OC)N(C(=O)Nc4ccccc4F)C2=NC(C(=O)OC)=C(C(=O)OC)[C@H]13 the results were MARV entry inh 2.9%[8.59 µM] and LASV entry inh 12.3%[8.59 µM].
`COc1ccc(-c2nn3ncccc3c2-c2ccnc(Nc3ccc(Cl)c(C(F)(F)F)c3)n2)cc1` gave MARV entry inh inconclusive.
Screening CC1(C)[C@@H]2CC[C@@]1(C)C(=O)C2 returned MARV entry inh inconclusive and LASV entry inh 1.0%&-25.4%.
For CC(C)=CCC/C(C)=C/C=C/C(C)=C/C=C/C(C)=C/C=C/C=C(C)/C=C/C=C(C)/C=C/C=C(\C)CCC=C(C)C the results were MARV entry inh -23.7% and LASV entry inh -9.9%.
C[C@@H](O)[C@H]1C(=O)N2C(C(=O)O)=C(SCCN=CN)C[C@H]12 was read as MARV entry inh -14.0%[17.8 µM] and LASV entry inh -2.9%[17.8 µM].
For COc1cccc([C@@H]2Oc3ccc(Br)cc3C(=O)[C@@H]2OC(=O)N[C@H]2CCCc3ccccc32)c1 the results were MARV entry inh -11.4%[8.59 µM] and LASV entry inh -10.2%[8.59 µM].
For CCCC[C@H](NC(=O)[C@H](CC(C)C)NC(=O)[C@@H](Cc1c[nH]c2ccccc12)NC(=O)[C@H](Cc1ccccc1)NC(=O)[C@@H](Cc1c[nH]c2ccccc12)NC(=O)[C@H](CC(N)=O)NC(=O)[C@@H](Cc1c(Cl)cccc1Cl)NC(=O)[C@@H]1CCCN1C(=O)[C@H](Cc1ccccn1)NC(=O)[C@@H]1CCCN1C(=O)[C@H](N)CCCCNC(=O)c1cccnc1)C(N)=O the results were MARV entry inh 2.9% and LASV entry inh 8.8%.
O=C(O)COc1ccc(CCNS(=O)(=O)c2ccccc2)s1 was read as MARV entry inh -2.4% and LASV entry inh -17.1%.
`NS(=O)(=O)c1cccc(Nc2cc(-c3ccc(F)cc3)[nH]n2)c1` gave MARV entry inh 35.6%[activator] and LASV entry inh 22.4%.
`O=[N+]([O-])c1ccccc1` gave MARV entry inh -3.3% and LASV entry inh 7.0%.

Brought forward from above: 4 entries, then new ones.
For CCCC[C@H](NC(=O)[C@H](CC(C)C)NC(=O)[C@@H](Cc1c[nH]c2ccccc12)NC(=O)[C@H](Cc1ccccc1)NC(=O)[C@@H](Cc1c[nH]c2ccccc12)NC(=O)[C@H](CC(N)=O)NC(=O)[C@@H](Cc1c(Cl)cccc1Cl)NC(=O)[C@@H]1CCCN1C(=O)[C@H](Cc1ccccn1)NC(=O)[C@@H]1CCCN1C(=O)[C@H](N)CCCCNC(=O)c1cccnc1)C(N)=O the results were MARV entry inh 2.9% and LASV entry inh 8.8%.
O=C(O)COc1ccc(CCNS(=O)(=O)c2ccccc2)s1 was read as MARV entry inh -2.4% and LASV entry inh -17.1%.
`NS(=O)(=O)c1cccc(Nc2cc(-c3ccc(F)cc3)[nH]n2)c1` gave MARV entry inh 35.6%[activator] and LASV entry inh 22.4%.
`O=[N+]([O-])c1ccccc1` gave MARV entry inh -3.3% and LASV entry inh 7.0%.
For O=c1[nH]c(=O)n([C@H]2CCCO2)cc1F the results were MARV entry inh 8.1% and LASV entry inh -6.1%.
For O=C(O)CCNC(=O)c1ccc(N=Nc2ccc(O)c(C(=O)O)c2)cc1 the results were MARV entry inh 17.2% and LASV entry inh -9.3%.
Screening C[C@H](N)CCCC(C)(C)O returned MARV entry inh 5.2%[17.8 µM] and LASV entry inh -4.1%[17.8 µM].
For CCC1CN(Cc2cn[nH]c2-c2ccc(F)cc2)Cc2cc(OC)ccc2O1 (configuration not stated) the results were MARV entry inh inconclusive and LASV entry inh 11.0%.
For CCOc1ccc2nc3cc(N)ccc3c(N)c2c1 the results were MARV entry inh 1.8%&-15.6% and LASV entry inh 21.7%&2.8%.
For O=C(c1cn(CC2CCCN(Cc3cc4ccccc4s3)C2)nn1)N1CCCC1 (configuration not stated) the results were MARV entry inh -3.5% and LASV entry inh -10.5%.
CCC(=O)OCC(=O)[C@@]1(OC(=O)CC)[C@H](C)C[C@@H]2[C@H]3CCC4=CC(=O)C=C[C@]4(C)[C@]3(Cl)[C@@H](O)C[C@@]21C was read as MARV entry inh -16.5%[17.8 µM] and LASV entry inh -18.2%[17.8 µM].
For COc1ccc2c(c1)NC(=O)C2CC(=O)N1CCOc2c(cc(-c3cnc4ccccc4c3)cc2OC)C1 (configuration not stated) the results were MARV entry inh -19.4% and LASV entry inh -27.4%.
Cc1cccc(CNc2cc(-c3ccccc3C)ncn2)c1 was read as MARV entry inh -18.6% and LASV entry inh -2.9%.
`CC1(C)CCCC2(C)C3C(O)CC2(C)C(O)C31` (configuration not stated) gave MARV entry inh 2.5% and LASV entry inh -12.0%.

The list goes on (2 carried over from the part before).
Cc1cccc(CNc2cc(-c3ccccc3C)ncn2)c1 was read as MARV entry inh -18.6% and LASV entry inh -2.9%.
`CC1(C)CCCC2(C)C3C(O)CC2(C)C(O)C31` (configuration not stated) gave MARV entry inh 2.5% and LASV entry inh -12.0%.
CCCCC/C=C\CC1OC1C/C=C\C/C=C\CCCC(=O)O (configuration not stated) was read as MARV entry inh 5.8%&21.8% and LASV entry inh 1.8%&-7.8%.
For CC(Oc1ccc(O)cc1)(P(=O)(O)O)P(=O)(O)O the results were MARV entry inh 3.2% and LASV entry inh 9.1%.
`Cc1nc(C)c(C(=O)N2CCc3c(cnc(C)c3CNC(=O)c3cncs3)C2)s1` gave MARV entry inh -31.4% and LASV entry inh -27.1%.
COC(=O)c1cccc(C(=O)N2CCc3c(C(=O)OC)c(OCc4ccccn4)cc(=O)n3CC2)c1 was read as MARV entry inh -16.4% and LASV entry inh 3.6%.
Oc1cccc(O)c1 was read as MARV entry inh 12.2%&16.3% and LASV entry inh -5.6%&-11.8%.
COc1ccc(CNc2ncncc2-c2ccccc2Cl)c(OC)c1 was read as MARV entry inh 2.2% and LASV entry inh 0.5%.
For COc1cc(/C=C/C(=O)c2c(O)cc(C)oc2=O)ccc1O the results were MARV entry inh 0.7% and LASV entry inh -7.4%.
For COCC(C)NCc1cc2ccc(OC)cc2nc1N1CCN(c2ccc(F)cc2)CC1 (configuration not stated) the results were MARV entry inh 11.2µM* and LASV entry inh inconclusive.
Screening Nc1ncnc2[nH]c(=O)[nH]c12 returned MARV entry inh 0.0% and LASV entry inh 9.0%.
CC[C@H](C)[C@H](NC(=O)CNC(=O)[C@@H](NC(=O)[C@@H](NC(=O)[C@H](Cc1ccc(O)cc1)NC(=O)[C@H](CC(C)C)NC(=O)[C@H](C)NC(=O)[C@H](CCC(N)=O)NC(=O)CNC(=O)[C@@H]1CCCN1C(=O)CNC(=O)[C@H](Cc1ccccc1)NC(=O)[C@H](Cc1cnc[nH]1)NC(=O)[C@@H](NC(=O)CNC(=O)[C@H](CCCNC(=N)N)NC(=O)[C@H](CCCNC(=N)N)NC(=O)[C@@H](NC(=O)[C@H](CC(N)=O)NC(=O)[C@@H](N)CS)[C@@H](C)O)[C@@H](C)CC)[C@@H](C)O)[C@@H](C)O)C(=O)O was read as MARV entry inh 3.0% and LASV entry inh 0.5%.
Screening CNc1ncnc2c1ncn2[C@@H]1O[C@H](COP(=O)(O)O)[C@@H](O)[C@H]1O returned MARV entry inh inconclusive and LASV entry inh inconclusive.
For C=CCCN1[C@@H](Cc2ccccc2)COc2ccccc2S1(=O)=O the results were MARV entry inh inconclusive.
Screening CCOC(=O)COc1ccc2c(C)c(CCN(CC)CC)c(=O)oc2c1Cl returned MARV entry inh inconclusive and LASV entry inh 9.6%&-25.3%.
COC(=O)N1C2CC3(C)C=C(C)OC1(C)C3c1ccccc12 (configuration not stated) was read as MARV entry inh -14.5%[8.59 µM] and LASV entry inh -14.2%[8.59 µM].
COC(=O)c1c(OCc2cccnc2)cc(=O)n2c1CCN(C(=O)c1ccc(OC)c(F)c1)CC2 was read as MARV entry inh -20.3% and LASV entry inh -10.3%.
For CNC(=O)[C@@H]1C[C@H](Sc2nc3ccccc3[nH]2)CN1Cc1ccccc1C(F)(F)F the results were MARV entry inh -7.7% and LASV entry inh -22.3%.
`CCCCC[C@H](O)/C=C/C=C\C/C=C\CCCCC(=O)O` gave MARV entry inh -4.9% and LASV entry inh -2.4%.
Screening CCCC(=O)N1CCCN(c2nc(N)c3cc(OC)c(OC)cc3n2)CC1 returned MARV entry inh -21.0% and LASV entry inh -18.6%.
Screening COC(=O)C1(C(=O)OC)C[C@@H]2CON=C2[C@@H]1c1ccccc1 returned MARV entry inh 1.5%[8.59 µM] and LASV entry inh -3.3%[8.59 µM].
Screening COc1cc(=O)n2c(c1C(=O)N(C)Cc1nonc1C)CCN(Cc1cc(F)ccc1F)CC2 returned MARV entry inh -8.2% and LASV entry inh -27.2%.
For Cc1cc(C)c2c(-c3ccc(-c4ccc(C(F)(F)F)cc4)cc3)cc(=O)oc2c1 the results were MARV entry inh -10.4% and LASV entry inh 17.5%.
`Fc1ccccc1-c1nc(-c2ccccc2)oc1NC1CCCCC1` gave MARV entry inh 13.7% and LASV entry inh inconclusive.
For COc1ccc(C2CC(=O)Oc3cc(C)c(Cl)c(C)c32)cc1 (configuration not stated) the results were MARV entry inh -28.9% and LASV entry inh inconclusive.
Screening COc1cccc2c1OC(=O)CC2c1ccccc1C (configuration not stated) returned MARV entry inh 16.5% and LASV entry inh -19.7%.
For COc1cc(=O)n2c(c1C(=O)NCc1ccco1)CCN(Cc1c(F)cccc1F)CC2 the results were MARV entry inh -4.6% and LASV entry inh 0.0%.
`COc1ccccc1-c1nccc(NCc2cnc(C)cn2)n1` gave MARV entry inh -26.4% and LASV entry inh 2.8%.
`Cc1ncc2c(c1CNC(=O)c1ccc3c(c1)OCO3)CCN(C(=O)c1ccoc1)C2` gave MARV entry inh inconclusive and LASV entry inh -5.4%.
Screening CCCCOCC1CN(CCCC)S(=O)(=O)c2c(Oc3ccc(SC)c(C)c3)cccc2O1 (configuration not stated) returned MARV entry inh -21.7% and LASV entry inh -25.0%.
`CC1C(=O)CC2C3(C)CCC2(C(C)C(=O)O)C(=O)C13` (configuration not stated) gave MARV entry inh 3.0% and LASV entry inh -5.0%.
`O=C1CCCC2=C1[C@H]1O[C@](CCCCN3C(=O)c4ccccc4C3=O)(Cc3ccccc31)O2` gave MARV entry inh -1.7%[8.59 µM] and LASV entry inh -8.3%[8.59 µM].
`O=C(O)C1Cc2c([nH]c3ccccc23)C(c2coc3ccccc3c2=O)N1` (configuration not stated) gave MARV entry inh 24.5% and LASV entry inh -7.3%.
C1CC[C@H]([C@@]23C[C@H](C[C@H]4CCCN[C@H]42)[C@@H]2CCCCN2C3)NC1 was read as MARV entry inh 12.6µM* and LASV entry inh -21.2%.
`COC(=O)[C@@H]1CCCN1C(=O)c1c(OC)cc(=O)n2c1CCN(Cc1cc(OC)ccc1F)CC2` gave MARV entry inh -8.2% and LASV entry inh -6.4%.
`CCCCCCCCCCCCCCCCC(C(=O)O)C(O)(CC(=O)O)C(=O)O` (configuration not stated) gave MARV entry inh 48.5%[activator] and LASV entry inh -30.0%.
For CCCCCCCCCCCCC/C=C/[C@@H](O)[C@@H](N)COP(=O)(O)O the results were MARV entry inh -17.0%&-25.7% and LASV entry inh inconclusive.
`COc1ccc(CCN(C)C(=O)c2cnn(-c3nccc(-c4ccc(C)o4)n3)c2C)cc1OC` gave MARV entry inh 33.7%[activator] and LASV entry inh 55.8%[activator].
COC(=O)C(c1ccc(OC)c(OC)c1)C1c2ccccc2C=C(C)N1C(=O)OC (configuration not stated) was read as MARV entry inh 1.9% and LASV entry inh -2.1%.
`CCCC[C@@H](C=O)NC(=O)[C@H](CC(C)C)NC(=O)[C@H](CC(C)C)NC(C)=O` gave MARV entry inh 0.0891µM* and LASV entry inh 10µM*.
Screening COc1cc(OC)c2c(c1Cl)O[C@@]1(C2=O)[C@H](C)CC(=O)C[C@@H]1OC returned MARV entry inh -19.7%[17.8 µM] and LASV entry inh -3.8%[17.8 µM].
C[C@H]1CN(CCc2ccccc2)C(=O)[C@H]1CC(=O)Nc1ccc(Br)cc1 was read as MARV entry inh -8.1%.
Screening Cc1cc(-c2ccnc(-n3ncc(C(=O)NCC4COCCO4)c3C3CC3)n2)c(C)s1 (configuration not stated) returned MARV entry inh -8.8% and LASV entry inh -0.6%.
Screening COc1cccc(C2(CC(=O)N3CCC(c4nc5ccc(F)cc5[nH]4)CC3)CC(=O)N(C)C2=O)c1 (configuration not stated) returned MARV entry inh 5.8% and LASV entry inh -6.5%.
`COC[C@@H](O)[C@H]1OCc2ccccc2[C@H]1C=Cc1ccccc1` gave MARV entry inh 6.8%[8.59 µM] and LASV entry inh -1.9%[8.59 µM].
`O=C(O)C(O)c1ccccc1` (configuration not stated) gave MARV entry inh 2.7%&2.2% and LASV entry inh 9.5%&1.5%.
Cc1nn(C)cc1CN1CCOc2ccc(C(C)(O)COc3ccccc3)cc2C1 (configuration not stated) was read as MARV entry inh 5.9% and LASV entry inh -5.2%.
`CC1(C)CN(C2CCCCC2)C(=O)[C@@H]1CC(=O)Nc1ccccc1` gave MARV entry inh -14.4% and LASV entry inh -26.8%.
`COc1ccc(C[C@H](N)C(=O)N[C@H]2[C@@H](O)[C@H](n3cnc4c(N(C)C)ncnc43)O[C@@H]2CO)cc1` gave MARV entry inh 3.98µM* and LASV entry inh 4.47µM*.
CC(=O)N[C@@H](CSC/C=C(\C)CC/C=C(\C)CCC=C(C)C)C(=O)O was read as MARV entry inh 22.0%&-8.2%&8.9% and LASV entry inh -11.6%&-10.2%&-13.0%.
N[C@H](C(=O)O)[C@@H]1CC(Cl)=NO1 was read as MARV entry inh inconclusive and LASV entry inh inconclusive.
O=C1CC(c2ccccc2)Oc2ccccc21 (configuration not stated) was read as MARV entry inh 46.5%[activator] and LASV entry inh 4.8%.
Cc1cc2oc(=O)cc(CN3CCCC3)c2cc1C was read as MARV entry inh -7.2% and LASV entry inh 12.5%.

Only part of the results is shown. The share of hits here may be higher or lower than overall.
